# AF4-AF9 inh: blocks AF4 peptide binding to human AF9; P42568; AlphaScreen, biotin-AF4 peptide binding to FLAG-AF9; inhibition, % at 10 µM; hit rate 0.47% among 350,000;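 active = every replicate reaching a set inhibition limit, whatever the replicate mean, cut at about 25% in these data; inconclusive = mean inhibition reaches that limit but some replicates miss it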;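 also: 0% = plate neutral control median and 100% = total signal loss; the record names both 10 and 1 µM as test concentration; the first replicate is given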
# Target sequence (P42568 whole entry, looked up): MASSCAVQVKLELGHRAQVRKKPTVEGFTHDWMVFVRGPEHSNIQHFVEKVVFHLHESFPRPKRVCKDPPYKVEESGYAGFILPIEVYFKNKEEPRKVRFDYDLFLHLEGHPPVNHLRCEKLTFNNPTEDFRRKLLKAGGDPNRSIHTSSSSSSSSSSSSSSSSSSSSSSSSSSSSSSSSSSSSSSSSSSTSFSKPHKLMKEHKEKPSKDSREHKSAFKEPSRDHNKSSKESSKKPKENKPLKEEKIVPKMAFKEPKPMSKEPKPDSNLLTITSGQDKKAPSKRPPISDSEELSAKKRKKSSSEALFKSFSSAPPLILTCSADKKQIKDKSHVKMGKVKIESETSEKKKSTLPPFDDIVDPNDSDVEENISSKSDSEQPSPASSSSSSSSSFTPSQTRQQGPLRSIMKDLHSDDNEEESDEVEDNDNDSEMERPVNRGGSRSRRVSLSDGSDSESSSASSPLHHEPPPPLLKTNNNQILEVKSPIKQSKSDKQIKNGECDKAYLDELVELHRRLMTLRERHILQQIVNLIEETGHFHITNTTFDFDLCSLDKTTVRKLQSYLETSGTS
# HNF4A DNA FP: change in binding of human HNF4 alpha to DNA; hit rate 0.3% among 360,000; P41235; activity change, % at 10 µM; HNF4a-FITC DNA binding, fluorescence polarization, 1 h; in the data active = activity change above about 30%, passing the limit was not always enough;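 also: controls were the assay level and a saturating level of protein; the project sought stronger binding though the title names inhibitors; some compounds called inactive have numbers as strong as hits; positive values seem to mean higher polarization but the record does not say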
# Target sequence (P41235 whole entry, looked up): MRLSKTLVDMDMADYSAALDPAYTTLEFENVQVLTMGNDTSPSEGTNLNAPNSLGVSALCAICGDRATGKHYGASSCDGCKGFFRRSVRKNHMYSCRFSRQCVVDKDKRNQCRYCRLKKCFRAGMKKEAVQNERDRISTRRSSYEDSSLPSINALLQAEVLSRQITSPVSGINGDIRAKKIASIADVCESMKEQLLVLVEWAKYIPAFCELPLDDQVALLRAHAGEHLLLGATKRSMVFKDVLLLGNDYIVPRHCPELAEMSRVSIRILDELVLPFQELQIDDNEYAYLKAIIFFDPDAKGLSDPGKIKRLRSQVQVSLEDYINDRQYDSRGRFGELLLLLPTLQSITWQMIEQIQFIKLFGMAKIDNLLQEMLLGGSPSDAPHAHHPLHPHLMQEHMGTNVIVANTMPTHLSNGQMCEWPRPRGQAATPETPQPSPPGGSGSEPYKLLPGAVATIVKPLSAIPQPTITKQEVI
# E coli growth: inhibitors of Escherichia coli growth; OD600, 23 h; active compounds read low; OD600 absorbance (no concentration beside the values); hit rate 0.21% among 330,000; AID 1053175;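 active = OD600 absorbance below the run mean of sample wells minus 3.6 SD, in any replicate, cut at about 0.56 in these data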;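 also: stock transfer was 300 nL into about 60 µL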
# ALR H2O2 inh: human ALR oxidase inhibition via reduced H2O2 | purified ALR, DTT oxidation, H2O2 HRP-luminol luminescence | inhibition, % (concentration not given with the values) | hit rate 3.8% among 290,000 | AID 485317;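 active = mean and each replicate at 75% or more; inconclusive = only one of the two met; inactive = neither met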;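 also: stock transfer was 7.5 nL into about 7.5 µL; 0% = neutral wells and 100% = wells with inactivated enzyme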
# Ecoli rRNA inh: inhibitors of bacterial rRNA selective over humanized ribosomes; E. coli WT GFP vs humanized-ribosome RFP mutants, fluorescence, 24 h; active compounds read low; DMSO median 0, no signal -100; GFP signal change (wild-type ribosome), % (concentration not given with the values); hit rate 1.6% among 350,000;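 active = significant combined selectivity score with lowered wild-type GFP, culture density cut under 30%, mutant RFP and density less affected; inactive = any of these conditions unmet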; also: one replicate is shown; some compounds called inactive have numbers as strong as hits
# Vif TR-FRET: HIV-1 Vif–A3G interaction blockers – biochemical, TR-FRET, GST-Vif 1-94, biotin-A3G peptide, dose response retest, primary screen (AID 1117319); TR-FRET GST-Vif / biotin-A3G peptide binding; higher % means a stronger effect; test concentration not given here; strong numbers were not always called active; one-dose inhibition, %; IC50 in µM for titrated hits; hit rate 0.57% among 260,000;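 active = above the screen mean plus three standard deviations and confirmed in dose response; inconclusive = results disagree or hit not tested in dose response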;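 also: Vif residues 1-94 fused to GST binding biotinylated APOBEC3G peptide 110-148; 0% = full assay without inhibitor and 100% = GST in place of GST-Vif; retest series ran down from 100 µM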
# FGF22 binding: FGF22 (human) thermal shift binding | recombinant FGF22 thermal shift, SYPRO orange fluorescence; percent of sucrose octasulfate shift, DMSO zero | hit rate 1.5% among 340,000 | Q9HCT0 | AID 651658 | calls only at 9.99 µM;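 active = melting point raised past a set limit in the mean and every replicate; inconclusive = no clear call; three in four hits are not shown here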
# Ecoli rRNA inh OD600: recorded beside Ecoli rRNA inh, whose call it bears; OD600 change, %; measured here: OD600 growth;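 optical density of the mix in the first replicate; 0 = DMSO median and -100 = no signal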
# Ecoli rRNA inh RFP: further read-out of Ecoli rRNA inh, marked with its call; RFP signal change, %; measured here: RFP humanized mutant strains;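 first replicate; 0 = DMSO median and -100 = no signal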
# * marks the source's active call; other numbers are inactive results; i = inactive; ? = inconclusive; · = not tested or not shown. This is a subset, so the mix of outcomes need not match the whole.
no.	Compound	AF4-AF9 inh	Ecoli rRNA inh OD600	E coli growth	FGF22 binding	Vif TR-FRET	HNF4A DNA FP	Ecoli rRNA inh	Ecoli rRNA inh RFP	ALR H2O2 inh
1	CO[C@@H]1CN(C)C(=O)c2cc(NS(=O)(=O)c3cccc(F)c3)ccc2OC[C@@H](C)N(C(=O)Cc2cccnc2)C[C@H]1C	-3.4	-2.0	·	i	·	·	-3.7	0.2	·
2	CC(OC(=O)c1cc(O)c2ccccc2c1O)C(=O)Nc1ccc(C(N)=O)cc1 (centres undefined)	5.2	-24.8	0.66	i	31.8%	2.6	6.7	3.8	-42.4
3	CCNc1nc(NCC)n2c(SCC(=O)Nc3cc(Cl)ccc3OC)nnc2n1	-1.3	7.8	0.689	i	11.6%	-3.0	6.0	-2.0	-3.1
4	CCn1cc([N+](=O)[O-])c(C(=O)Nc2ccc(Cn3nc(C)cc3C)cc2)n1	5.6	-2.1	0.694	i	5.1%	-2.1	-1.0	-1.0	2.3
5	CCOC(=O)COc1coc(CN2CCN(c3ccc(F)cc3)CC2)cc1=O	-0.4	8.2	0.696	i	·	-2.7	5.4	-4.8	17.7
6	CSCCC(NS(=O)(=O)c1ccccc1)C(=O)OC(C)C(=O)Nc1ccc(Cl)cn1 (centres undefined)	0.4	·	0.689	i	6.0%	-0.4	·	·	-2.5
7	Cc1cccc(N2CCN(S(=O)(=O)c3c(C)[nH]c(C)c3C(=O)N3CCCC3)CC2C)c1 (centres undefined)	3.9	11.2	0.716	i	-10.8%	2.7	11.1	0.4	64.3
8	COc1ccc(OC)c(NC(=O)COC(=O)CCc2nc3ccccc3c(=O)[nH]2)c1	-4.9	11.5	0.722	i	-0.6%	-0.6	14.1	4.9	1.9
9	CCOC(=O)C1CCCN(C(=O)CCCn2nnnc2CN2CCOCC2)C1 (centres undefined)	-0.3	3.9	0.712	i	·	-4.8	5.6	0.6	·
10	On1c(-c2ccccc2Cl)nc2ccccc21	-2.4	16.9	0.676	i	·	-0.6	6.9	-2.9	-1.7
11	COc1ccc(NC(=O)Nc2ccc3c(c2)C(=O)N([C@@H](C)CO)C[C@H](C)[C@H](CN(C)C(=O)Nc2ccc(F)cc2)OCCCC[C@@H](C)O3)cc1	0.2	5.9	·	i	·	·	2.2	0.0	·
12	C[C@@H]1CCCCO[C@@H](CN(C)Cc2ccc(Cl)c(Cl)c2)[C@H](C)CN([C@@H](C)CO)C(=O)c2cc(NC(=O)NC3CCCCC3)ccc2O1	4.2	20.4	·	i	·	·	0.3	1.2	·
13	CSCC[C@H](NC(=O)c1cc2c([nH]c3ccccc32)c(-c2ccccc2)n1)C(=O)O	-1.0	7.2	0.661	i	-3.3%	-3.5	-3.6	5.1	·
14	Cc1cccc(C(=O)NC2CC3CCCC(C2)N3C(=O)NC2CCCCC2)c1 (centres undefined)	·	·	0.693	·	?	-3.3	·	·	·
15	Cc1ccc(NC(=O)CN(C)C(=O)c2ccc(-n3cncn3)c([N+](=O)[O-])c2)cc1	-1.1	2.1	0.655	i	12.2%	-0.7	-2.1	1.3	-14.5
16	Cc1ccc(/C=C/C(=O)NCc2ccc3c(c2)OCO3)o1	·	·	0.608	·	21.6%	-0.5	·	·	92.2*
17	C=CCn1cc(C(=O)NCCCN(CC)CC)c(=O)c2cc(S(=O)(=O)N3CCC(C)CC3)ccc21	-1.3	10.5	0.715	i	·	2.0	7.8	0.6	0.1
18	O=C(OCCNc1nc(-c2ccccc2)nc2ccccc12)c1cccnc1	-1.6	-26.8	0.705	i	0.1%	-1.5	-27.2	-5.6	·
19	Cc1nc(-c2ccccc2)sc1C(=O)CSc1ccccc1	·	·	0.773	·	-1.9%	0.3	·	·	1.9
20	NC(=O)C12CCCC(Br)(CCC1)C2	0.5	3.9	0.682	i	2.3%	-1.0	14.6	-1.9	·
21	CC(C(=O)N1CCCC1)N(c1ccc(Cl)cc1)S(C)(=O)=O (centres undefined)	0.9	19.4	·	i	·	-1.0	8.8	2.2	·
22	COc1ccc2c3c(n(C)c2c1)[C@@H](CO)N(C(=O)c1ccccn1)CC31CN(C(=O)c2ccccn2)C1	2.1	2.6	·	i	·	·	-2.2	-3.2	·
23	CC(=O)c1c(C(C)=O)c(C)n(-c2ccc(C(=O)O)cc2)c1C	·	·	0.719	·	?	0.8	·	·	7.3
24	N#Cc1c(NC(=O)CCN2C(=O)c3ccccc3C2=O)oc(-c2ccccc2)c1-c1ccccc1	·	·	0.726	·	-0.6%	-0.4	·	·	17.4
25	COc1ccccc1C1=NOC(COC(=O)c2ccc([N+](=O)[O-])cc2)C1 (centres undefined)	-0.3	9.6	0.713	i	24.9%	1.4	9.3	-0.4	-9.7
26	CCOc1ccc(-n2c(O)cc(=O)[nH]c2=O)cc1	·	-6.1	0.625	i	·	4.2	-4.2	3.0	-8.7
27	COC(=O)c1ccc(Nc2nc(C)cc(=O)[nH]2)cc1	·	·	0.755	·	2.1%	-1.5	·	·	-3.6
28	CNC(=O)CC1C(=O)N(c2ccc(F)cc2)C(=S)N1NC(=O)c1ccc(Cl)cc1 (centres undefined)	1.4	-12.4	0.715	i	-0.4%	3.0	-11.2	-0.7	23.0
29	COc1cccc(-c2nc(CS(=O)CC(=O)NCCc3ccc(C)cc3)c(C)o2)c1 (centres undefined)	-1.1	-13.8	0.679	i	·	-1.4	-0.9	-5.7	13.7
30	COc1ccc(-c2ccc3n(c2=O)C[C@H]2[C@H](CO)[C@@H](C(=O)N(C)C)[C@@H]3N2Cc2cncnc2)cc1	-0.1	10.5	·	i	·	·	1.9	-0.8	·
31	COc1ccc(CNC(=O)CN(Cc2ccc(OC)cc2)C(=O)CCC(=O)Nc2ccccn2)cc1	-2.1	14.1	0.683	i	·	-0.1	12.8	2.2	-0.2
32	CCOC(=O)C(CCC(C)=O)C(=O)c1ccccc1 (centres undefined)	-4.7	3.6	0.661	i	·	1.0	2.7	0.0	0.1
33	Cn1ccnc1SCC(=O)c1ccc(OC(F)F)cc1	0.7	-3.0	0.692	i	·	-5.5	3.5	-0.5	·
34	CN1C(=O)/C(=C\c2cccc(OCc3ccccc3)c2)SC1=S	-0.5	5.1	0.673	i	-11.4%	1.4	2.2	0.0	·
35	C[C@@H]1CN([C@H](C)CO)C(=O)Cc2cc(NS(=O)(=O)c3ccccc3)ccc2O[C@@H]1CN(C)C(=O)Nc1ccc(C(F)(F)F)cc1	-13.6	-5.2	·	i	·	·	-0.7	-1.1	·
36	Cc1cc(C(=O)Nc2ccccc2N2CCOCC2)c2ccccc2n1	·	·	0.715	·	2.9%	0.8	·	·	-12.6
37	COc1ccc(C(=O)Nc2ccc3c(c2)OC[C@H](C)N(C(C)=O)C[C@@H](C)[C@H](OC)CN(C)C3=O)cc1	-0.6	2.0	·	i	·	·	-1.6	0.2	·
38	O=C(O)C1CCN(C(=O)c2cc(F)cc3c2OCOC3)CC1	-1.8	9.2	0.675	i	1.6%	7.8	17.8	3.6	-4.5
39	CN1C(=O)C(CC(=O)NC2CCCCC2)SC1=Nc1ccccc1 (centres undefined)	-0.8	6.3	0.662	i	-6.5%	3.3	0.1	1.1	-14.4
40	CC(C)C#Cc1ccc([C@@H]2[C@@H](CO)N(C(=O)c3ccccn3)[C@H]2C#N)cc1	2.7	-39.2	·	i	·	·	1.5	14.2	·
41	CSc1nnc(-c2ccc(NC(=O)CCc3ccccc3)cc2)n1C	·	·	0.657	·	18.8%	1.3	·	·	-8.7
42	COc1ccc(C(=O)NC(CO)c2nnc(SCc3ccc(Cl)c(Cl)c3)n2C)cc1 (centres undefined)	·	·	0.659	·	-2.5%	3.1	·	·	-7.3
43	C=CCn1c(=N)n(CC(O)c2ccco2)c2ccccc21 (centres undefined)	·	·	0.663	·	27.0%	-4.2	·	·	-14.7
44	CN(c1ccccc1)S(=O)(=O)c1ccc(NC(=O)c2ccc(F)cc2)cc1	-3.9	-21.4*	0.622	i	·	0.4	-27.8*	-3.2*	1.7
45	COc1cc(O)c(C(CCN2CCCC2)c2ccc(N(C)C)cc2)c(OC)c1 (centres undefined)	39.0*	15.5	0.685	i	·	2.3	7.0	5.8	·
46	C[C@@H]1CN([C@@H](C)CO)C(=O)c2cc(NC(=O)Cc3ccccc3)ccc2O[C@H]1CN(C)CC1CC1	1.3	3.8	·	i	·	·	5.2	-0.9	·
47	O=C(Nc1ccc(F)cc1)Nc1nnc([C@H]2C[C@H](O)[C@@H](CO)O2)s1	-4.2	13.4	·	i	·	6.0	6.1	-1.6	·
48	O=C(NCC(=O)N(Cc1ccccc1)C(C(=O)NC1CCCCC1)c1ccco1)c1ccco1 (centres undefined)	·	·	0.762	·	10.7%	0.9	·	·	9.3
49	Cc1ccc2cccc(OC(=O)c3ccc4c(c3)OCCO4)c2n1	·	·	0.646	·	3.6%	-0.3	·	·	-5.5
50	CCNC(=O)[C@@H]1N[C@@H]2c3ccc(-c4cccc(C(=O)N(C)C)c4)c(=O)n3C[C@@H]2[C@H]1CO	-3.3	5.6	·	i	·	·	0.7	-2.3	·

# Going on with the list:
no.	Compound	AF4-AF9 inh	Ecoli rRNA inh OD600	E coli growth	FGF22 binding	Vif TR-FRET	HNF4A DNA FP	Ecoli rRNA inh	Ecoli rRNA inh RFP	ALR H2O2 inh
51	CCN(CC)C(=O)CSc1nc(-c2cccs2)cc(-c2cccs2)c1C#N	·	·	0.759	·	-38.3%	1.6	·	·	-1.7
52	COc1cc(N)c(Cl)cc1C(=O)OCC(=O)NCC1CCCCC1	-0.8	-22.9	0.652	i	4.7%	2.9	-21.7	-0.6	-1.6
53	COc1ccc(OC)c(Cc2nnc(CCC(=O)N3CCC(N4CCCCC4)CC3)o2)c1	9.3	24.1	0.646	i	·	0.1	33.3	2.0	-14.0
54	O=C(Nc1ccc(Br)cc1)c1cccc(N2C(=O)CCC2=O)c1	0.9	1.3	0.681	i	6.2%	-0.1	0.9	-3.1	8.4
55	CCCC/S(C)=N/S(=O)(=O)c1ccc(C)cc1 (centres undefined)	·	·	·	·	1.0%	-0.2	·	·	-2.1
56	COc1ccc(NC(=O)Nc2ccc3c(c2)C(=O)N([C@H](C)CO)C[C@H](C)[C@H](CN(C)C(=O)Nc2ccccc2)OCCCC[C@H](C)O3)cc1	-11.1	-1.6	·	i	·	·	1.5	-4.9	·
57	Cc1cc(NCCCN2CCOCC2)n2c(nc3ccccc32)c1C#N	·	·	0.68	·	-8.6%	-0.7	·	·	-9.9
58	CC(=O)c1c(C)[nH]c(C(=O)Nc2cccc(S(=O)(=O)N(C)C)c2)c1C	3.2	-24.1	0.713	i	11.9%	2.7	-16.5	-3.6	-5.2
59	CCS(=O)(=O)N1CC(=O)N2[C@H](CO)[C@@H](c3ccc(-c4cccc(F)c4)cc3)[C@H]2C1	1.2	23.2	·	i	·	·	3.0	-1.6	·
60	COCCn1c(C)cc(C(=O)COC(=O)c2cccc(O)c2)c1C	·	2.8	0.673	i	-3.6%	0.7	-2.8	0.5	-3.3
61	Cc1cccc(OCc2nc3ccccc3c(=O)n2N)c1	·	·	0.643	·	7.1%	-1.2	·	·	-15.4
62	Oc1ccc(Cl)cc1C=Nc1ccc(Br)cc1	-3.3	3.3	0.648	i	-0.8%	1.0	-3.7	-2.0	-1.7
63	COc1ccc(C(=O)Nc2nc3nccc(-c4ccccc4)n3n2)cc1	0.4	12.3	0.701	i	1.2%	-0.8	2.2	-6.3	1.6
64	CC(C)CN1C=C2C(=O)C(C)(OC(=O)CCc3ccccc3)C(=O)C=C2C=C1c1ccc(C#N)cc1 (centres undefined)	1.7	-3.3	0.703	i	·	-2.9	6.0	0.5	-9.3
